Screening data (PubChem BioAssay)
Cruzain noTriton – inhibitors of Trypanosoma cruzi cruzain without detergent | purified cruzain, Z-FR-AMC fluorescence, no detergent | P25779 | AID 1476 | actives 2.3% (n = 200,000) | Potency, µM, for the others: max response, negative = inhibition, usual class: inhibitors;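 note: plate controls were enzyme without inhibitor for no effect and buffer without enzyme for full effect; nearly all actives have a fitted effect of over 40% in size; top concentration of the series not given in the record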
Target sequence (P25779 123-467 limits assumed): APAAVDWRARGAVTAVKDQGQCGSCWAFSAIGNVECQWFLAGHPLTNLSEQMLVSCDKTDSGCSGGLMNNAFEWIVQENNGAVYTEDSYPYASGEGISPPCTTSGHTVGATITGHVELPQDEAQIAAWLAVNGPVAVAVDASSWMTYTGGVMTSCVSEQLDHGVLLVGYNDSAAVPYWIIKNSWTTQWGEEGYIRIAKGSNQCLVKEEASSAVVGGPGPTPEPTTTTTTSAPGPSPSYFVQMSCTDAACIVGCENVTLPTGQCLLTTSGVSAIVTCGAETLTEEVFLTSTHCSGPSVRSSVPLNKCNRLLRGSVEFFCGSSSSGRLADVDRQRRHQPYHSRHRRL
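Purified cruzain at 1.5 nM, pre-incubated 15 min with compound at room temperature in 100 mM sodium acetate pH 5.5, 5 mM DTT, 0.00005% Triton X-100. Reaction started with 2 uM Z-FR-AMC; AMC fluorescence increase over 60 s gives rate.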
LASV entry inh – blocks Lassa virus binding to or entry into cells. Potency, µM (highest dose often 37.9 µM), without a hit: top-dose activity change, negative = inhibition, actives largely listed as inhibitors. actives 1.2% (n = 300,000). Lassa virus pseudotype entry inhibition, cell reporter; control for the full effect not named in the record. AID 540256; active means well fitted inhibition curve with a large enough effect; inconclusive means small, poorly fitted or top-dose-only effect, or effect the other way; inactive means flat fitted curve, though single readings scatter; tested in HEK293 cells; note: % is set by controls: 0 for no effect and ±100 for the full control effect; nearly all actives have a fitted effect of over 50% in size; luciferase read-out
RE007 growth inh – less growth of the S. pombe RE007 Vpr strain; S. pombe RE007 Vpr strain, BacTiter-Glo ATP luminescence, 24 h; control for the full effect not named in the record; Potency, µM (highest dose often 92.2 µM), for inactives: at the top dose activity change, negative = less growth; actives 0.21% (n = 360,000); active = well fitted falling curve with a large enough effect; inconclusive = small, poorly fitted or top-dose-only effect; inactive = no such curve, though single readings can be large or run the other way;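 note: % is set by controls: 0 for no effect and ±100 for the full control effect; nearly all actives have a fitted effect of over 50% in size; the assay follows cell death caused by Vpr and the record does not say whether a fall means rescue or toxicity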
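Fission yeast strain RE007, carrying one chromosomally integrated HIV-1 vpr copy, was seeded at OD 0.01 in PMG+AL medium with 23 nL pinned compound. After 24 h at 30 °C and 99% humidity, viability was read by BacTiter-Glo luminescence.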
Marburg entry inh – blocks Marburg virus binding to or entry into cells | AID 540276 | Potency, µM (top dose mostly 37.8 µM), inactives show top-dose activity change, negative = inhibition, usual class: inhibitors | Marburg virus pseudotyped entry inhibition, cell reporter; control for the full effect not named in the record; about a third of the inactives were read at about 46 µM | actives 1.8% (n = 300,000); active = well fitted inhibition curve with a large enough effect; inconclusive = small, poorly fitted or top-dose-only effect, or effect the other way; inactive = flat fitted curve, though single readings scatter; tested in HEK293 cells; about a fifth of its hits are not listed in these tables; note: % is set by controls: 0 for no effect and ±100 for the full control effect; luciferase read-out
NS1 function inh – blocks influenza NS1 protein function; S. cerevisiae slowed by influenza A NS1, growth recovery by OD600; Potency, µM (top dose mostly 46.1 µM), without a hit: top-dose activity, positive = more growth; actives 0.4% (n = 270,000); active means well fitted rising curve with a large enough effect; inconclusive means small, poorly fitted or top-dose-only effect; inactive means no such curve, though single readings can be large or run the other way; note: nearly all actives have a fitted effect of over 50% in size
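S. cerevisiae expressing influenza A NS1, grown in glucose, washed, then diluted 1:100 into pH 6.0 -URA galactose medium with 23 nl compound. Growth recovery read as OD600; NS1-free strain serves as control.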
SARS PLpro yeast – inhibitors of SARS-CoV papain-like protease in yeast. S. cerevisiae expressing SARS-CoV PLpro, growth rescue; control for the full effect not named in the record. Potency, µM (titrated, usually from 32.9 µM), for the others: at the highest dose activity, positive = growth rescue. actives 0.19% (n = 330,000). AID 485353; active means well fitted rising curve with a large enough effect; inconclusive means small, poorly fitted or top-dose-only effect; inactive means no such curve, though single readings can be large or run the other way; note: 0% is about no effect; nearly all actives have a fitted effect of over 55% in size; growth read by luminescence after 48 h
2A StopGo – FMDV 2A StopGo reporter, luciferase signal; human cells with a luciferase reporter of 2A StopGo recoding; control for the full effect not named in the record; Potency, µM (series often up to 57.9 µM), without a hit: at the highest dose signal change, negative = less light; actives 1.2% (n = 410,000); active = well fitted falling curve with a large enough effect; inconclusive = small, poorly fitted or top-dose-only effect; inactive = no such curve, though single readings can be large or run the other way; tested in HEK293T cells; note: % is set by controls: 0 for no effect and ±100 for the full control effect; nearly all actives have a fitted effect of over 45% in size; luciferase light after 4 h
Cruzain inh Det – inhibitors of Trypanosoma cruzi cruzain with detergent. P25779. purified cruzain, Z-FR-AMC fluorescence, 0.01% Triton. Potency, µM, without a hit: max response, negative = inhibition, most hits filed as inhibitors. actives 0.43% (n = 200,000). AID 1478;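 note: plate controls were neutral wells for no effect and buffer without enzyme for full effect; nearly all actives have a fitted effect of over 40% in size; top concentration of the series not given in the record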
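Enzyme 1.5 nM, Z-FR-AMC 2 uM, NaOAc 100 mM pH 5.5, DTT 5 mM, Triton X-100 0.01%; 15 min RT compound preincubation; kinetic ex360/em450, 60 s delta.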
* marks the source's active call; other numbers are inactive results; ? = inconclusive; . = not tested or not shown; & = joins results of further samples; [ ] = remark or other dose. Unless noted, calls come from the whole dose curve; as a rule, active = well fitted curve in the direction sought with a large enough effect; inconclusive = small, poorly fitted or top-dose-only effect, or another doubt; inactive = no such curve, though single readings can be large; an effect the other way counts as inactive or inconclusive. Potency is the fitted concentration of half-maximal effect. Rows were taken by chance. About 4.8% of those tested had a hit in this group.

Structure | Cruzain noTriton | LASV entry inh | RE007 growth inh | Marburg entry inh | NS1 function inh | SARS PLpro yeast | 2A StopGo | Cruzain inh Det
Cc1ccc(-c2ccccc2NC(=O)CCl)o1 | -3% | -22% | -5% | ? | -30% | 26% | 0% | 4.7%
CCn1c(C)c(C(=O)c2ccccc2)c(C#N)c1C(=O)O | . | . | 11% | . | -6% | 0% | 30% | .
COc1ccc(C(=O)N/C(=C\c2cc(OC)c(OC)cc2[N+](=O)[O-])C(=O)NCC(=O)O)cc1 | . | -4% | -14% | ? | 2% | 0% | 6% | .
CN(CCO)C1=CC(=O)CC(C)(C)C1 | 9% | 4% | -6% | 8% | 0% | 0% | 5% | -3.9%
COC(=O)c1[nH]cnc1C(=O)c1ccccc1 | 2% | -1% | 10% | -5% | -2% | -5% | -3% | 1.4%
Fc1cccc(Cl)c1CNCCSc1nnnn1-c1ccccc1 | 13µM* | 21%[46.1 µM] | . | -8%[46.1 µM] | . | . | 18% | 2.5%
O=S(=O)(NCCN1CCOCC1)c1ccc(-c2ccc(S(=O)(=O)NCCN3CCOCC3)cc2)cc1 | . | . | -8% | . | 2% | -2% | -6% | .
CC1CCCC(NC(=O)C2N(CCCN3CCCC3)C(=O)C3C(C(=O)Nc4ccc(Cl)cc4)C4C=CC32O4)C1C (stereo not given) | . | 24% | 0% | ? | -1% | 0% | 20% | .
CCOC(=O)C(=O)NNc1cccc(C)c1C | -4% | ? | . | 0% | 9% | 5% | -9% | -0.8%
CC1=CC(=O)N(c2ccn(C)n2)C1=O | . | 6% | 0% | 4%[46.1 µM] | -2% | -4% | -29% | .
CCOC(=O)c1cc(-c2ccc(C)cc2)n(CCC(=O)Nc2nc3c(C)cccc3s2)c1C | ? | . | . | ? | . | . | -24% | 0.9%
COc1ccc(C(=O)NCCc2ccc(C)cc2)cc1OC1CCN(C(C)=O)CC1 | . | 3% | 4% | -13% | 2% | 1% | -28% | .
O=C(Nc1ccc(Cl)cc1Cl)c1cc(S(=O)(=O)N2CCC3(CC2)OCCO3)ccc1F | 10% | ? | . | . | . | . | -14% | 1.3%
C=CCn1c(O)c(C(CC)=Nc2cccc(C(=O)O)c2)c(=O)[nH]c1=O | . | 24%[46.1 µM] | 18% | 0%[46.1 µM] | -3% | 1% | 8% | .
CC(/C=N/NC(=O)c1cccs1)=C\c1ccco1 | . | ? | 3% | 10%[46.1 µM] | . | -11% | 91%[activator] | .
CCOC(=O)C1CCN(C(=O)Nc2ccc(NC(=O)C3CCN(C(=O)OCC)CC3)cc2)CC1 | -3% | -1% | 15% | -1%&22% | 5% | 2% | 8% | 2.6%
CN(c1ccccc1)S(=O)(=O)c1cccc(NC(=O)CN2C(=O)NC3(CCCC3)C2=O)c1 | . | -8% | 1% | -1% | . | 3% | -12% | .
C#CCOc1c(Br)cc(/C=N/O)cc1OCC | -6% | ? | 16% | 8% | -10% | -23% | -27% | -5.0%
O=C(O)c1ccc(NCc2ccncc2)cc1 | 4% | 26% | -6% | 8% | 4% | 3% | -14% | 3.3%
Cc1ccn2c(=O)c(C(=O)O)cnc2c1 | . | 11% | 8% | -4%[46.1 µM] | -4% | 1% | -3% | .
Cc1cccc(NC2=NCC(=O)N2Cc2cccs2)c1 | . | ? | 25% | 4%[46.1 µM] | 1% | 0% | 0% | .
N#CC1=C(N)N(c2ccccc2C#N)C2=C(C(=O)CCC2)C1c1ccsc1 (stereo not given) | -6% | 7% | -14% | -24% | -30% | 4% | -9% | -4.6%
O=C(COC(=O)CNC(=O)c1ccccc1)Nc1nnc(-c2ccccc2)o1 | . | 3% | 21% | 9%[46.1 µM] | . | -2% | 6% | .
O=C(Nc1ccn(C2CC(OC(=O)c3ccccc3)C(CO)O2)c(=O)n1)c1ccccc1 (stereo not given) | -13% | -12% | -11% | ? | -2% | 6% | ? | 3.5%
CC(C)(C)c1nc(SCC(=O)Nc2nc3c(s2)CCCC3)c2ccccc2n1 | ? | 1µM* | -5% | 1µM* | -10% | -4% | . | -14%
CCCOC(=O)c1ccc(NC(=O)CSC2=Nc3ccccc3C3CC=NN23)cc1 (stereo not given) | ? | 2% | 27% | -3% | -1% | -6% | -8% | 0.0%
CC(NC(=O)c1ccc(CS(=O)(=O)c2cccc(C(F)(F)F)c2)o1)c1ccc2c(c1)OCCO2 (stereo not given) | ? | -4% | 4% | ? | 4% | 3% | -25% | 4.2%
O=[N+]([O-])c1ccc(/C=N/n2c(C3CCCCC3)n[nH]c2=S)cc1 | -3% | -7% | -12% | 7% | 13% | -4% | 3% | -1.8%
O=C(c1ccco1)N(Cc1cccs1)c1ccc(F)cc1 | -10% | 14%[46.1 µM] | . | -14%[46.1 µM] | . | . | -19% | -4.4%
CCC(=O)N1CCc2cc(Br)cc(S(=O)(=O)CCC(=O)Nc3ccc(C)c(F)c3)c21 | 2% | 1%[46.1 µM] | . | -9%[46.1 µM] | . | . | -12% | 0.0%
Cn1c(N/N=C2\CCCc3ccccc32)nc2c1c(=O)n(Cc1ccccc1)c(=O)n2C | -15% | 14% | -6% | ? | 11% | 29% | 0% | -9.4%
Cc1cc(C)cc(NC(=O)c2sc3nc4n(c(=O)c3c2C)N=C(c2ccc(F)cc2)CS4)c1 | 6% | 21%[46.1 µM] | . | . | . | . | -26% | 1.6%
CCCNS(=O)(=O)c1ccc2nc(NC(=O)c3ccc(F)cc3)sc2c1 | -7% | 4%[46.1 µM] | . | . | . | . | 52%[activator] | -1.6%
Cn1c(CC(=O)c2ccc(Br)cc2)[n+](C)c2ccccc21 | . | 17% | -5% | 11%[46.1 µM] | . | 1% | -2% | .
O=[n+]1cc(-c2ccc(Br)cc2)n([O-])c2c1CCC2 | -10% | -17% | -6% | 13% | -1% | -4% | -20% | -4.6%
CCCNC(=O)OCCC12CC3CC(CC(C3)C1)C2 | -12% | ? | 45% | ? | -14% | -1% | 32%[activator] | -1.3%
CCN(Cc1ccccc1)C(=O)Cc1c[nH]c2ccccc12 | . | 0% | 2% | 7%[46.1 µM] | -1% | 1% | 34%[activator] | .
COc1ccc(OC)c(CNc2ncc(-c3ccc(Cl)cc3)n2C)c1 | -1% | -1%[46.1 µM] | . | -9%[46.1 µM] | . | . | -10% | -0.7%
COCc1cc(C)c(C#N)c(=S)[nH]1 | -5% | -2% | 44% | 4% | 14% | -2% | 0% | -3.3%
CCOC(=O)CCCNC(=O)COC(=O)c1cccc(F)c1 | . | -14%[46.1 µM] | 14% | 3%[46.1 µM] | . | 5% | ? | .
COc1ccc(CCNc2nc(-c3ccc(O)cc3)cs2)cc1OC | . | . | -15% | . | ? | -2% | ? | .
O=C(OCCCN=C1NS(=O)(=O)c2ccccc21)C1CC(=O)N(c2ccc(Cl)cc2)C1 (stereo not given) | ? | -1% | 4% | -2%[46.1 µM] | -9% | -8% | -24% | -2.3%
O=C(Oc1ccc(C(=S)N2CCOCC2)cc1)c1ccc(Br)cc1 | 5% | -15% | . | 8% | -6% | -24% | -3% | -2.9%
COc1ccc(-n2c(=O)c3sc4ccccc4c3n(CC(=O)Nc3ccccc3F)c2=O)cc1 | 3% | 16%[46.1 µM] | . | ? | . | . | -4% | -1.2%
COc1cccc(N(CC(=O)NC2CCCCC2)C(=O)Cn2nnc(-c3ccc(C)o3)n2)c1 | . | . | 17% | 22%[46.1 µM] | 5% | -10% | 4% | .
O=C(NCC(c1ccco1)N1CCc2ccccc2C1)c1c(F)cccc1F (stereo not given) | . | 8% | 2% | -2% | . | 6% | -15% | .
COc1ccc(CNC(=O)c2ccc(NC(=O)C3=CSCCO3)cc2)cc1 | . | . | 1% | . | 4% | 14% | 64%[activator] | .
COc1cccc(N2CCN(C(=O)C3CCN(S(=O)(=O)c4c(C)noc4C)CC3)CC2)c1 | ? | -14%[46.1 µM] | . | -5%[46.1 µM] | . | . | -18% | -1.2%
CCC(=O)n1nc(-c2cccnc2)nc1NCc1ccccc1 | . | 3% | -18% | 23%[46.1 µM] | . | -1% | ? | .
Cc1ccc(NC(=S)NN2CCN(C)CC2)cc1 | 10% | 4% | -1% | 4% | 4% | 9% | -13% | 0.1%

Remaining list, next part
Structure | Cruzain noTriton | LASV entry inh | RE007 growth inh | Marburg entry inh | NS1 function inh | SARS PLpro yeast | 2A StopGo | Cruzain inh Det
CC1=NNC(=O)C1CCC(=O)N/N=C(\C)c1ccc(Cl)cc1 (stereo not given) | . | 24% | 1% | 21%[46.1 µM] | 5% | 0% | 9% | .
Cc1cc(C)n2nc(-c3cnn(C)c3C(F)(F)F)cc2n1 | -1% | 29% | 3% | 29% | -5% | -5% | 0% | 5.3%
Cc1cc(C)nc(NC(=O)c2cc(-c3ccc4c(c3)OCO4)nc3ccccc23)c1 | . | -4% | ? | -17% | 19% | -2% | 9% | .
COc1ccc(C(C2C(=O)CC(C)(C)CC2=O)C2C(=O)CC(C)(C)CC2=O)cc1COCC(F)(F)F | ? | 0% | -1% | 19% | ? | 5% | -11% | -1.5%
Cc1cc(C)n2c(Br)c(CSc3nc4ccccc4s3)nc2n1 | 17% | 0% | -25% | ? | -2% | ? | 35%[activator] | -5.1%
CCCCOc1ccc(C(=O)Nc2ccc3c(c2)C(=O)NC3=O)cc1 | . | . | -3% | . | 2% | 7% | -4% | .
CCN(CC)c1ccc2c(C)c(CO)c(=O)oc2c1 | . | 7%[46.1 µM] | 7% | 26%[46.1 µM] | -4% | 1% | 20% | .
CC(O)c1cccc(N=Cc2ccc3ccccc3c2O)c1 (stereo not given) | . | . | 2% | . | -2% | -6% | -12% | .
COc1ccc(-c2cc(C(=O)Nc3ccccc3O)c3ccccc3n2)cc1 | . | ? | 6% | ? | . | . | ? | .
COc1ccc(CC(=O)Nc2sc3c(c2C(N)=O)CCCC3)cc1OC | . | -2%[46.1 µM] | -1% | ? | 6% | -3% | -18% | .
